Lassa entry inh – inhibitors of Lassa virus binding or cell entry; Lassa virus pseudotype entry inhibition, cell reporter; control for the full effect not named in the record; Potency, µM (highest dose often 37.9 µM), for inactives: top-dose activity change, negative = inhibition, hits mostly inhibitors; 300,000 compounds, 1.2% hits; active means well fitted inhibition curve with a large enough effect; inconclusive means small, poorly fitted or top-dose-only effect, or effect the other way; inactive means flat fitted curve, though single readings scatter; tested in HEK293 cells; further: on the % scale 0 is the no-effect control and ±100 the full control effect; nearly all actives have a fitted effect of over 50% in size; luciferase read-out
RE007 growth inh – less growth of the S. pombe RE007 Vpr strain. S. pombe RE007 Vpr strain, BacTiter-Glo ATP luminescence, 24 h; control for the full effect not named in the record. Potency, µM (series often up to 92.2 µM), without a hit: at the highest dose activity change, negative = less growth. 360,000 compounds, 0.21% hits. AID 651644; active = well fitted falling curve with a large enough effect; inconclusive = small, poorly fitted or top-dose-only effect; inactive = no such curve, though single readings can be large or run the other way;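 further: on the % scale 0 is the no-effect control and ±100 the full control effect; nearly all actives have a fitted effect of over 50% in size; the assay follows cell death caused by Vpr and the record does not say whether a fall means rescue or toxicity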
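Fission yeast strain RE007, carrying one chromosomally integrated HIV-1 vpr copy, was seeded at OD 0.01 in PMG+AL medium with 23 nL pinned compound. After 24 h at 30 °C and 99% humidity, viability was read by BacTiter-Glo luminescence.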
Marburg entry inh – blocks Marburg virus binding to or entry into cells; AID 540276; 300,000 compounds, 1.8% hits; Marburg virus pseudotyped entry inhibition, cell reporter; control for the full effect not named in the record; about a third of the inactives were read at about 46 µM; Potency, µM (top dose mostly 37.8 µM), without a hit: at the top dose activity change, negative = inhibition, usual class: inhibitors; active = well fitted inhibition curve with a large enough effect; inconclusive = small, poorly fitted or top-dose-only effect, or effect the other way; inactive = flat fitted curve, though single readings scatter; tested in HEK293 cells; about a fifth of its hits are not listed in these tables; further: on the % scale 0 is the no-effect control and ±100 the full control effect; luciferase read-out
Cruzain inh Det – inhibitors of Trypanosoma cruzi cruzain with detergent; P25779; 200,000 compounds, 0.43% hits; Potency, µM, without a hit: max response, negative = inhibition, actives largely listed as inhibitors; purified cruzain, Z-FR-AMC fluorescence, 0.01% Triton;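 further: plate controls were neutral wells for no effect and buffer without enzyme for full effect; nearly all actives have a fitted effect of over 40% in size; top concentration of the series not given in the record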
Target sequence (P25779 123-467 limits assumed): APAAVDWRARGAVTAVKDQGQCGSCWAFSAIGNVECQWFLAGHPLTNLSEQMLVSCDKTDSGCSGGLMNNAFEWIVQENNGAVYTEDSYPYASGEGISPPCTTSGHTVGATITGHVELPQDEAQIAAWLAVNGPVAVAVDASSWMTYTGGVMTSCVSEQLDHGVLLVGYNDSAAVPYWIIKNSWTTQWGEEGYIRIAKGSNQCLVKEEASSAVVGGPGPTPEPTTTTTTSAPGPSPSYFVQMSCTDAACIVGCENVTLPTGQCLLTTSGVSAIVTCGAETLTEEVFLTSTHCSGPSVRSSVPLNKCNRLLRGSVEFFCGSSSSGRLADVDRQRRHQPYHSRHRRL
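Cysteine protease activity tested under reducing, mildly acidic conditions (100 mM sodium acetate pH 5.5, 5 mM DTT) plus 0.01% Triton X-100. Cruzain 1.5 nM; substrate Z-FR-AMC 2 uM; 15 min compound preincubation at room temperature.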
NS1 inh – blocks influenza NS1 protein function | S. cerevisiae slowed by influenza A NS1, growth recovery by OD600 | Potency, µM (highest dose often 46.1 µM), for inactives: at the top dose activity, positive = more growth | 270,000 compounds, 0.4% hits | AID 2326; active means well fitted rising curve with a large enough effect; inconclusive means small, poorly fitted or top-dose-only effect; inactive means no such curve, though single readings can be large or run the other way; further: nearly all actives have a fitted effect of over 50% in size
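Compounds were scored for reversing the slow growth caused by influenza A NS1 in S. cerevisiae, measured by optical density at 600 nm. Assay medium contained 2% galactose at pH 6.0; NS1-free yeast of the same strain were the positive control.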
Cruzain noTriton – inhibitors of Trypanosoma cruzi cruzain without detergent; Potency, µM, for inactives: max response, negative = inhibition, hits mostly inhibitors; 200,000 compounds, 2.3% hits; purified cruzain, Z-FR-AMC fluorescence, no detergent; P25779;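 further: plate controls were enzyme without inhibitor for no effect and buffer without enzyme for full effect; nearly all actives have a fitted effect of over 40% in size; top concentration of the series not given in the record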
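Purified cruzain at 1.5 nM, pre-incubated 15 min with compound at room temperature in 100 mM sodium acetate pH 5.5, 5 mM DTT, 0.00005% Triton X-100. Reaction started with 2 uM Z-FR-AMC; AMC fluorescence increase over 60 s gives rate.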
2A StopGo – FMDV 2A StopGo reporter, luciferase signal; Potency, µM (titrated, usually from 57.9 µM), for inactives: top-dose signal change, negative = less light; human cells with a luciferase reporter of 2A StopGo recoding; control for the full effect not named in the record; 410,000 compounds, 1.2% hits; active = well fitted falling curve with a large enough effect; inconclusive = small, poorly fitted or top-dose-only effect; inactive = no such curve, though single readings can be large or run the other way; tested in HEK293T cells; further: on the % scale 0 is the no-effect control and ±100 the full control effect; nearly all actives have a fitted effect of over 45% in size; luciferase light after 4 h
SARS PLP yeast – blocks SARS-CoV papain-like protease in a yeast assay; S. cerevisiae expressing SARS-CoV PLpro, growth rescue; control for the full effect not named in the record; AID 485353; Potency, µM (top dose mostly 32.9 µM), for inactives: at the highest dose activity, positive = growth rescue; 330,000 compounds, 0.19% hits; active means well fitted rising curve with a large enough effect; inconclusive means small, poorly fitted or top-dose-only effect; inactive means no such curve, though single readings can be large or run the other way; further: 0% is about no effect; nearly all actives have a fitted effect of over 55% in size; growth read by luminescence after 48 h
Starred values were filed as active, the others as inactive; ? = inconclusive; / = no result given; & = joins results of further samples; [ ] = another dose, or the depositor's remark. Unless noted, the call rests on the fitted dose curve; in most records, active means well fitted curve in the direction sought with a large enough effect; inconclusive means small, poorly fitted or top-dose-only effect, or another doubt; inactive means no such curve, though single readings can be large; an effect the other way counts as inactive or inconclusive. Potency means the concentration at half of the fitted maximal effect. Compounds as they come. Share with any hit: about 4.8%.

SMILES	Lassa entry inh	RE007 growth inh	Marburg entry inh	Cruzain inh Det	NS1 inh	Cruzain noTriton	2A StopGo	SARS PLP yeast
COc1ccc(CC(=O)Nc2ccc(-c3nc4ccccc4s3)c(C)c2)cc1	11%[46.1 µM]	/	/	0.9%	/	7%	14%	/
C=CCn1cc([N+](=O)[O-])nc1C	6%	12%	?	-3.9%	5%	12%	-14%	-7%
CCCCn1c(N)c(N(CCC(C)C)C(=O)CSc2nnc3ccccn23)c(=O)[nH]c1=O	-8%	14%	20%	4.6%	?	?	9%	2%
COc1cc(C2Nc3cc(Cl)c(S(N)(=O)=O)cc3S(=O)(=O)N2)ccc1OCc1ccccc1 (stereo not given)	9%	-26%	1%	-0.9%	-53%	-3%	43%[activator]	-11%
CC(C)(C)c1ccc(C(=O)NCCc2csc3nc(-c4ccccc4F)nn23)cc1	-14%[46.1 µM]	/	/	-8.4%	/	26%	7%	/
CC(C)[C@H](NC(=O)[C@@H]1Cc2ccccc2CN1C(=O)OC(C)(C)C)C(=O)NCc1ccco1	?	-5%	-21%[46.1 µM]	/	-6%	/	15%	-1%
O=C(c1ccco1)n1nc(-c2ccccc2)nc1NCc1ccco1	-2%	-8%	15%	-4.6%	-9%	-7%	14%	1%
CCOC(=O)C1(C)C=C(Nc2ccc(OC)cc2)C(=O)N1c1ccccc1 (stereo not given)	20%[46.1 µM]	/	27%[46.1 µM]	-4.5%	/	-6%	-7%	/
CCC(C(=O)OCc1cc(=O)n2nc(C)sc2n1)c1ccccc1 (stereo not given)	?	/	/	0.9%	/	-8%	-21%	/
CCOc1ccc(/C=C2\SC(=S)N(CCC(=O)Nc3cccc(C(=O)O)c3)C2=O)cc1	?	-1%	?	/	10%	/	32%[activator]	1%
Nc1nc(SCC(=O)c2c(N)n(Cc3ccccc3)c(=O)[nH]c2=O)n[nH]1	27%	-1%	1%[46.1 µM]	/	9%	/	-16%	0%
Cc1cccn2c(=O)c(C=O)c(Sc3ncccn3)nc12	?	-9%	?	/	/	/	?	1%
CCN(CCNC(=O)C1CCN(S(=O)(=O)CC)CC1)c1ccccc1	14%	4%	3%	7.5%	0%	1%	/	7%
CC12C(=O)N(c3cccc4cccnc34)C(=O)C1C1C=CC2C1 (stereo not given)	/	-7%	/	3.2%	8%	-3%	6%	-6%
O=C(CSc1nnc(-c2ccncc2)o1)N1CCc2ccccc2C1	/	0%	-12%[46.1 µM]	/	/	/	-4%	1%
CCOC(=O)Nc1ccc(NC(=O)c2ccccc2F)cc1	/	-5%	/	/	-8%	/	53%[activator]	-1%
NC(=O)c1ccccc1NC(=O)CN1CCN(Cc2ccccc2)CC1	/	-2%	/	/	1%	/	-19%	-2%
Cc1cccc(NC(=S)NCc2ccccc2)c1C	22%	3%	6%	/	-18%	/	38%[activator]	0%
O=C(NC1CC1)C1CCC(=O)N1C1CCCC1 (stereo not given)	11%	2%	-12%	4.4%	-2%	1%	19%	10%
Cc1cccc(C(C)C)c1NC(=O)C(C)OC(=O)Cn1cnc2c1c(=O)n(C)c(=O)n2C (stereo not given)	10%[46.1 µM]	12%	19%	/	/	/	-10%	2%
CCCOc1cccc(C(=O)N2CCCCC2CCN2CCCCC2)c1 (stereo not given)	-3%[46.1 µM]	/	?	-0.6%	/	-9%	-4%	/
Cc1csc(Nc2ccc(C(=O)O)cc2)n1	/	-1%	/	/	2%	/	43%[activator]	0%
CC(=O)N1C(=O)C2(C(C#N)=C(N)Oc3c2c(C)nn3-c2ccccc2)c2ccccc21 (stereo not given)	-15%	-12%	-19%	-5.0%	-67%	6%	-30%	-12%
COc1ccccc1NC(=O)NCCCCc1ccccc1	?	15%	?	/	-61%	/	6%	16%
CCOc1ccc(C(=O)Nc2ccc(N3CCN(C)CC3)cc2)cc1	/	-15%	/	/	-3%	/	25%	1%
COc1ccccc1-c1c(C)nn2c(C)c(C(C)=O)cnc12	26%	15%	?	3.1%	-5%	5%	0%	-4%
Cc1nnc(SCC(=O)Nc2nonc2C)s1	22%[46.1 µM]	-12%	20%[46.1 µM]	/	5%	/	-5%	1%
O=C(Nc1nccs1)c1ccc(S(=O)(=O)NCC2CCCCC2)cc1	25%[14.3 µM]	-8%	?	-5.8%	-5%	-7%	18%	2%
CCc1nnc(NC(=O)c2cccc(S(=O)(=O)N3CCN(c4ccccc4)CC3)c2)s1	-16%	3%	?	-1.2%	0%	-19%	-24%	16%
O=C(c1nc2ccc(Cl)cn2c1CNCCn1ccnc1)N1CCCCCCC1	/	-1%	/	/	2%	/	5%	0%
O=C(Nc1ccccc1N1CCCC1)c1ccco1	-1%	-3%	17%[46.1 µM]	1.9%	-9%	-1%	6%	5%
O=C(CSCC(=O)Nc1nc(-c2ccc3c(c2)OCO3)cs1)Nc1nccs1	/	9%	/	/	?	/	?	0%
Cc1c(NC(=O)COC(=O)/C=C/c2ccc(Cl)cc2)c(=O)n(-c2ccccc2)n1C	2%	6%	-1%[46.1 µM]	/	-3%	/	-5%	1%
O=C(NC1CC(=O)N(c2ccccc2)C1)C1CC1 (stereo not given)	1%	-2%	8%[46.1 µM]	/	/	/	-22%	-2%
Cc1ccc(-c2cn(S(=O)(=O)c3ccc(C)cc3)nc2N)cc1	-1%	17%	5%	-2.2%	-2%	5%	3%	2%
O=C(NCc1cccnc1)c1ccc(NC(=O)c2ccc([N+](=O)[O-])cc2)cc1	/	9%	/	/	-16%	/	?	0%
CCN(CC)CCN(C(=O)/C=C/c1cccs1)c1nc2ccc(F)cc2s1	/	-12%	/	/	-23%	/	0%	-1%
CCNCC(=O)N1c2ccccc2CCc2ccc(NC(=O)OC(C)C)cc21	-25%[46.1 µM]	-14%	?	/	19%	/	-27%	-3%
C=C(C)Cn1c(=O)c2c(nc3n2CCN3c2ccc(F)cc2)n(C)c1=O	-1%[46.1 µM]	/	/	-4.1%	/	6%	1%	/
O=C1c2ccccc2C(=O)N1c1cccc2cccnc12	4%	-15%	11%&11%	-3.1%	-2%	8%	-12%	23%
CC(C)(C)Nc1nc(NN)nc(NC(C)(C)C)n1	?	12%	?	4.8%	9%	6%	-22%	7%
O=C(CSc1nnc(CNC(=O)c2cccs2)o1)NCC1CCCO1 (stereo not given)	18%	-2%	1%	/	/	/	-12%	1%
COC(=O)CN(C)C(=O)CC1C(=O)NCCN1CC(C)(C)C (stereo not given)	/	5%	/	/	1%	/	-11%	0%
CCCCc1ccc(NC(=O)CC(C)=O)cc1	12%	9%	0%	4.4%	-8%	-1%	37%[activator]	-2%
Nn1c(-c2ccc(F)cc2)nc2ccccc2c1=O	/	15%	/	/	3%	/	-2%	-1%
N#Cc1c(-c2ccccc2)ccnc1Oc1ccccc1	12%	26%	?	-5.2%	-7%	1%	2%	-5%
Cc1cccc(N2CCN(C(=O)c3cn(C4CCCCC4)c(=O)c4c3c3ccccc3n4C)CC2)c1C	?	/	?	0.8%	/	-9%	-7%	/
Cc1cc(NC(=O)COC(=O)C2CC(=O)N(c3cccc(Cl)c3)C2)no1 (stereo not given)	10%[46.1 µM]	28%	7%[46.1 µM]	/	-11%	/	8%	1%
CCOc1ccc(-n2c(=S)sc3c(=O)[nH]c(SCC(=O)N4CCC(C)CC4)nc32)cc1	0%	14%	-1%	?	14%	?	/	8%
CCOc1cc(S(=O)(=O)Nc2ccc(Cl)cn2)ccc1Cl	25%	1%	5%	-7.2%	-3%	-7%	56%[activator]	-9%
Cc1ccc(C(=O)NCC(=O)OCC(=O)Nc2cc(S(=O)(=O)N3CCOCC3)ccc2Cl)s1	8%	1%	-17%	/	/	/	-11%	3%
Nc1c(C(=O)Nc2ccc3c(c2)OCCO3)nnn1Cc1cccc(Br)c1	-5%[46.1 µM]	-6%	-12%	/	/	/	78%[activator]	-5%
O=C(CN1CCN(Cc2ccc(F)cc2)CC1)NCc1ccccc1	/	12%	/	/	7%	/	11%	-7%
O=C(CN1CCN(c2ncccn2)CC1)N(Cc1ccccc1)c1ccc(F)cc1	-20%	-11%	-27%	-0.2%	-38%	4%	/	6%
CCN(CC)c1ccc(NC(=O)c2ccc(=O)[nH]c2)cc1S(=O)(=O)Nc1ccc(OC)cc1	-11%[46.1 µM]	6%	-8%	/	/	/	51%[activator]	3%
N=C1C(c2ccccc2)=C(O)C2CCc3ccccc3N12 (stereo not given)	?	1%	10%	1.8%	0%	-5%	/	2%
O=C(CCN1CCOCC1)NNC(=O)/C(=C/c1ccccc1)NC(=O)c1ccccc1	11µM*	14%	?	/	/	/	-10%	-2%
Cc1ccc(CNC(=O)c2cc(S(=O)(=O)N3CCCCC3)cn2C)cc1	?	/	/	?	/	-29%	-6%	/
CCOC(=O)C1CCCN(C(=O)N2CCOCC2)C1 (stereo not given)	10%	3%	?	0.7%	9%	-3%	-5%	3%
Cc1ccc(C(=O)NC(=S)NNS(=O)(=O)c2ccccc2)cc1	?	?	-11%[46.1 µM]	/	-47%	/	-2%	12%
Cc1cc(-n2nc(C)cc2C)nc(NS(=O)(=O)c2ccccc2Cl)n1	23%	-2%	4%	1.6%	1%	7%	2%	5%
COc1ccc(-c2c(NC(=O)c3ccco3)oc3ccccc3c2=O)cc1OC	/	14%	/	/	-3%	/	-12%	4%
CCN(CC)S(=O)(=O)c1cccc(NC(=O)CN(C)C2CCCCC2)c1	23%	-4%	-21%[46.1 µM]	/	/	/	-16%	1%

Compound activity (PubChem)
